# pPAFAH FP inh: inhibitors of human plasma PAF acetylhydrolase (pPAFAH). recombinant pPAFAH, FP-rhodamine probe fluorescence polarization. inhibition, % at 3.39 µM. 330,000 compounds, 1.5% hits;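 active = inhibition above the mean inhibition across the screen plus 3 SD, cut at about 25% in these data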;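 also: inhibitors block binding of the rhodamine activity-based probe so polarization drops; 0% = enzyme with DMSO and 100% = wells lacking pPAFAH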
# Target sequence (Q13093 whole entry, looked up): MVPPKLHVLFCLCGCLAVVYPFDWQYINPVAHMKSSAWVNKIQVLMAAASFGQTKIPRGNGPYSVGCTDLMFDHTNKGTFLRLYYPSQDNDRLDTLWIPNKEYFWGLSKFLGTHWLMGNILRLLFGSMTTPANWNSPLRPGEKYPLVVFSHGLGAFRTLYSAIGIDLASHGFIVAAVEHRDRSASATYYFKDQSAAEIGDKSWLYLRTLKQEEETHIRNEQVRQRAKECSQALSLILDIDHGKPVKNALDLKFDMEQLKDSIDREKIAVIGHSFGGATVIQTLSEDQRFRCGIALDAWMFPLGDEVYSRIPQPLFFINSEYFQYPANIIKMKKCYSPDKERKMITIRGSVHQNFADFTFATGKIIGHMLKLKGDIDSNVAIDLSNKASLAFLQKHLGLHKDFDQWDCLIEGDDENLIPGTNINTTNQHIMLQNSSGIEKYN
# PME-1 primary: PME-1 (human) inhibition | inhibition, % at 5.9 µM | recombinant PME-1, FP-Rh probe fluorescence polarization | 320,000 compounds, 0.53% hits | Q9Y570;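 active = inhibition above the campaign mean of all compounds plus 3 SD, cut at about 26% in these data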;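 also: competitive labeling of PME-1 active site by serine hydrolase directed probe; 0% = PME-1 with DMSO and 100% = wells lacking PME-1 enzyme; inhibitors block probe labeling so polarization falls and inhibition rises; many of its hits are not listed in these tables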
# Fam108B inh: Fam108B inhibition, counter-screen for RBBP9 inhibitors; inhibition, % at 9.51 µM; recombinant Fam108B, FP-Rh probe fluorescence polarization; 300,000 compounds, 0.33% hits; AID 1947;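 active = inhibition above the screen mean inhibition plus 3 SD, computed separately per campaign, cut at about 18% in these data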;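 also: inhibitors lower polarization as less probe binds the enzyme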
# GSTO1 inh: GSTO1 inhibition, counter-screen for RBBP9 inhibitors; P78417; recombinant GSTO1, activity-based probe fluorescence polarization; inhibition, % at 5.96 µM; 300,000 compounds, 1.1% hits;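 active = inhibition above the campaign mean inhibition plus 3 SD, cut at about 35% in these data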;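 also: 0% = GSTO1-1 with DMSO and 100% = wells lacking GSTO1-1 enzyme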
# Target sequence (P78417 whole entry, looked up): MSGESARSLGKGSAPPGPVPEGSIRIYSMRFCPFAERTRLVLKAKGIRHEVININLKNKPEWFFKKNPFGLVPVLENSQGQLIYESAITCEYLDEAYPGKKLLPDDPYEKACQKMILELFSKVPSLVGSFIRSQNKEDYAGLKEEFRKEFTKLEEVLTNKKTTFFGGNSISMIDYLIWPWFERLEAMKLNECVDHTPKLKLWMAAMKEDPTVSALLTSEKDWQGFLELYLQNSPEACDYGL
# PAD4 FP inh: blocks human protein arginine deiminase 4. Q9UM07. recombinant PAD4, RCA probe fluorescence polarization. inhibition, % at 6.36 µM. 330,000 compounds, 0.41% hits. AID 485272;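 active = percent inhibition above a cutoff equal to the mean of all tested compounds plus 3 SD, cut at about 15% in these data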;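 also: 0% = PAD4 with RCA probe and DMSO and 100% = probe without PAD4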
# LYPLA1 counter: LYPLA1 (human) inhibition in PME1 counter-screen; inhibition, % at 5.9 µM; O75608; 320,000 compounds, 0.16% hits; recombinant LYPLA1, FP-Rh probe fluorescence polarization;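 active = inhibition above the mean of all tested compounds plus 3 SD, set per campaign, cut at about 14% in these data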;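 also: inhibitors block serine hydrolase probe labeling of LYPLA1 so polarization falls; 0% = enzyme with DMSO and 100% = wells lacking LYPLA1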
# PAFAH1B3 FP inh: PAFAH1B3 (human) inhibition; Q15102; recombinant PAFAH1B3, FP-rhodamine probe, fluorescence polarization; inhibition, % at 3.39 µM; 340,000 compounds, 0.28% hits; AID 492972;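 active = inhibition above the screen-wide average of all tested compounds plus 3 SD, cut at about 25% in these data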;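 also: 0% = enzyme with DMSO only and 100% = wells lacking PAFAH1B3 protein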
# Target sequence (Q15102 whole entry, looked up): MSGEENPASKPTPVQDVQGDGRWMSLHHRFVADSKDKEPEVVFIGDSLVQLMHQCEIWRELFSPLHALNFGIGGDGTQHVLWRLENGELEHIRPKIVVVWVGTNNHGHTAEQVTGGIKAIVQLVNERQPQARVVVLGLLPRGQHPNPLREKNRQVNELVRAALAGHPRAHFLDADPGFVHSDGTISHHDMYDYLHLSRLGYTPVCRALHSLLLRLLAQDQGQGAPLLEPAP
# PAFAH2 inh: PAFAH2 (human) inhibition; recombinant PAFAH2, FP-rhodamine activity probe, fluorescence polarization; inhibition, % at 3.39 µM; 340,000 compounds, 0.99% hits; AID 492956;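 active = inhibition above the mean over all tested compounds plus 3 SD, cut at about 30% in these data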;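 also: inhibitors block probe labeling of enzyme so polarization drops; 0% = enzyme with DMSO and 100% = wells lacking PAFAH2 protein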
# * = called active by the depositor; x = no result given; & = joins results of further samples. Some of the compounds tested, so the mix of outcomes need not match the whole.
Compound,GSTO1 inh,PME-1 primary,PAFAH1B3 FP inh,Fam108B inh,pPAFAH FP inh,PAFAH2 inh,LYPLA1 counter,PAD4 FP inh
COc1cccc(C2CC(c3ccc(C(C)C)cc3)n3nc(N)nc3N2)c1 (stereo not drawn),-2,-2,1,-3,-6,-1,0,-2
Cc1ccc(Cl)cc1NC(=O)COC(=O)C12CC3CC(CC(C3)C1)C2,1&-8,-4&0,15&10,-5&4,8&5,9&25,-3&-1,2&-4
O=C(Cc1cccc(C(F)(F)F)c1)OCC(=O)N1CCN(S(=O)(=O)c2ccc(Cl)cc2)CC1,7,1,3,-2,23,19,1,-8
N#Cc1c(NC(=O)CSc2nc(N)cc(=O)[nH]2)sc2c1CCCCCC2,5,2,4,0,3,17,6,2
O=C(O)c1cccc(S(=O)(=O)N2CCN(S(=O)(=O)c3ccc4ccccc4c3)CC2)c1,x,x,0,x,x,-3,x,x
CC(Oc1ccc(Cl)cc1)c1ccc(C#N)c(=O)[nH]1 (stereo not drawn),6,7,9,3,0,4,4,6
O=c1[nH]c(CN(CCO)CCO)nc2c1C1(CCCCC1)Cc1ccccc1-2,0,-5,0,2,7,10,4,6
O=C1CC(c2ccc(F)cc2)Sc2nc(C34CC5CC(CC(C5)C3)C4)nn21 (stereo not drawn),-2,-1,-5,-2,3,0,-4,3
Cc1nn(-c2ccccc2)c(C)c1C(=O)NCCc1ccc(Cl)cc1,-1,-6,8,1,12,6,2,3
Clc1ccc(CN(Cc2ccc(Cl)cc2)c2nn[nH]n2)cc1,0,2,-3,-3,7,7,-1,1
CCCc1cc(=O)[nH]c(NCc2ccc(Cl)cc2)n1,6,-1,9,3,6,-8,1,0
O=C(NNC(=S)NCc1ccc(Cl)cc1)c1ccc(Br)o1,8,10,4,3,5,-2,0,-1
CC12CC3CC(C1)CC(C(=O)NNC(=O)c1ccncc1)(C3)C2,x,x,9,x,0,8,x,-3
Cc1ccc(SCCC(=O)Nc2ccccc2C(=O)NC(C)C)cc1,-5,-3,-1,5,-1,1,1,-4
O=C(Cc1ccc2ccccc2c1)NC(Cc1ccccc1)C(=O)O (stereo not drawn),x,x,5,x,3,3,x,-4
COc1ccc(OC)c(S(=O)(=O)Nc2cccc(C(C)=O)c2)c1,6,1,5,7,7,-1,0,3
COc1ccc(Cn2nnnc2C(c2cc3cccc(C)c3[nH]c2=O)N2CCOCC2)cc1 (stereo not drawn),6,-2,7,-1,4,-3,1,0
C=CCN1C(=O)C(Cc2ccc(SC(F)F)cc2)SC1=Nc1ccc(C(=O)O)cc1 (stereo not drawn),1,-1,17,1,20,-2,4,4
COc1ccc(S(=O)(=O)NCCSc2ccc(C)cc2)cc1OC,-3,2,4,-5,2,4,-2,-3
CCN(C(=O)C1CCCN1S(=O)(=O)c1ccc2c(c1)n(C)c(=O)c(=O)n2C)c1ccccc1 (stereo not drawn),2,-2,8,0,9,8,2,0
CCOC(=O)c1ccoc1CSCC(=O)N1CCN(S(=O)(=O)c2ccc(C)cc2)CC1,-3,12,-10,-1,4,-3,1,0
Nc1ccc(S(=O)(=O)c2ccc(Cl)cc2)cc1,-3,-2,4,-3,4,-4,-1,2
CC1CC(C)CN(S(=O)(=O)c2cc(C(=O)O)c(Cl)s2)C1 (stereo not drawn),14,4,1,-4,-5,7,1,-5
O=[N+]([O-])c1cc(CS(=O)(=O)Oc2ccc(Cl)cc2)c(O)c([N+](=O)[O-])c1,0,-4,1,-6,-3,7,-3,-2
CCCCOc1ccc(C(O)C(CN2CCCCC2)c2ccccc2)cc1 (stereo not drawn),-3,1,6,1,-1,0,-1,-1
O=C(O)CC(NC(=O)C12CC3CC(CC(C3)C1)C2)c1cc([N+](=O)[O-])ccc1Cl (stereo not drawn),5,-4,9,4,9,5,8,-2
O=C(COc1ccccc1)N1CCN(S(=O)(=O)c2ccc(Br)cc2)CC1,11,1,5,-1,-6,4,-2,-2
CCN(c1ccccc1)S(=O)(=O)c1ccc(F)c(C(=O)O)c1,4,4,2,0,1,-1,3,11
Cc1ccc(C(=O)Nc2nnc(S(=O)(=O)N3CCC(C)CC3)s2)cc1,-9,-10,2,-3,0,-7,-1,0
COc1ccc(CCNc2ncnc3sc(C)cc23)cc1OC,x,x,10,x,x,-1,x,x
O=C(N1CCOCC1)C12CC3CC(C1)CC(c1ccccc1)(C3)C2,4,-4,2,-4,12,0,-7,-2
CCOC(=O)CSc1nnc(Cc2ccccc2)n1-c1cccc(Cl)c1,-2,9,6,0,7,4,-1,1
Cc1cc(C(=O)NCCc2ccc(Cl)cc2)n(-c2ccccc2)n1,0,-1,3,3,4,-4,0,1
O=C(O)c1ccc(NC(=O)c2ccc(COc3ccc(Cl)cc3)o2)cc1,x,x,1,x,x,-7,x,x
Cc1ccnc(SCC(=O)Nc2sc3c(c2C#N)CCCC3)n1,-6,0,1,-2,-1,24,-1,-4
Cc1ccc(S(=O)(=O)N2[C@@H](c3ccccc3F)C(C(=O)O)=CC[C@H]2c2ccc(C(C)C)cc2)cc1,-4,-8,13,0,4,-3,-3,-1
Nc1ncnc2nc(SCCOc3ccc(Cl)cc3)[nH]c12,4,4,6,1,0,-3,4,6
Cc1ccc(OCC(=O)NS(=O)(=O)c2ccc(Cl)cc2)cc1,7,2,6,-4,-3,-1,1,0
CC(=O)NNS(=O)(=O)c1scc(S(=O)(=O)c2ccc(Cl)cc2)c1C,-2,-7,1,-3,5,-2,2,3
O=C(NC1CCCCC1c1ccccc1)c1ccccc1 (stereo not drawn),x,x,6,x,x,3,x,x
Fc1ccc(OCc2nn3c(Cn4nnc5ccccc54)nnc3s2)cc1,-2,6,1,-2,11,7,0,-3
CC(CCc1ccccc1)NC(=O)c1nnc(Cc2ccc(Cl)cc2)o1 (stereo not drawn),-7,-5,4,-5,9,-4,-1,7
Cn1cc(S(=O)(=O)NCc2ccc(Cl)cc2)c(=O)n(C)c1=O,3,-2,4,-2,3,2,0,-1
Cc1ccc(O)c(NC(=O)CN(C)S(=O)(=O)c2ccc(Cl)cc2)c1,4,2,13,3,6,2,0,-1
C[C@@H](CSc1ccc(Br)cc1)CN1CC[C@H](O)CCC1=O,x,0,0,x,4,2,-1,-2
O=C(O)/C=C/C(=O)NC1CCCCCCCCCCC1,0,-5,8,-3,-11,7,0,-2
O=C(NNC(=S)NCc1ccc(Cl)cc1)c1cccnc1,0,2,12,-2,3,3,3,1
CC(SC(C)C(=O)NN=Cc1ccc(F)cc1)C(=O)NN=Cc1ccc(F)cc1 (stereo not drawn),x,x,10,x,x,-7,x,x
CCN1CCN(C(=O)C2CC(c3ccc(F)cc3)=NO2)CC1 (stereo not drawn),6,-7,-3,1,9,-1,-1,2
CC(C)(CO)CNC(=O)CCc1nnc(C2(c3ccc(Cl)cc3)CCC2)o1,3,2,2,1,8,-8,-3,-1
COc1ccc(-c2cc(C(=O)NCCN3CCOCC3)c3cc(C(C)C)ccc3n2)cc1,-1,11,8,3,4,-2,1,-3
Cc1ccc(NC(=O)CSCC(=O)Nc2cc(Cl)ccc2N2CCOCC2)cc1,1,7,4,1,5,4,-1,0
COCCN(C(=O)COC(=O)CSc1ccc(Cl)cc1)c1c(N)n(Cc2ccccc2)c(=O)[nH]c1=O,3,0,6,0,16,12,3,-6
CC1CN(C(=O)c2cccc(COc3ccc(Br)cc3)c2)CC(C)O1 (stereo not drawn),-5,12,2,2,6,4,0,3
O=C(Nc1ccccc1C(=O)N1CCOCC1)c1ccc(CSc2ccccc2)cc1,9,-2,3,5,5,8,3,-2
O=C(Oc1ccc(N(Cc2cccs2)C2=NS(=O)(=O)c3ccccc32)cc1)c1ccco1,-7,0,6,-3,1,6,0,-1
COc1ccc(Cl)cc1NC(=O)CSc1nnc(Cc2ccc(C)cc2)c(=O)[nH]1,-68,-2,-2,0,1,-1,-5,-2
CC1=C(C#N)C(/C=N/OCc2ccc(Cl)cc2)CC(=O)N1 (stereo not drawn),-4,-2,3,-2,2,-5,-3,6
CC(C)(C)c1ccc(S(=O)(=O)NNC(=O)c2cc3ccccc3[nH]2)cc1,1,0,8,-1,5,8,-2,-7
Cc1cc(C)cc(C(=O)NCC(=O)OCC(=O)NCc2ccco2)c1,7,-7,4,-2,4,6,2,0

# Additional structures.
Compound,GSTO1 inh,PME-1 primary,PAFAH1B3 FP inh,Fam108B inh,pPAFAH FP inh,PAFAH2 inh,LYPLA1 counter,PAD4 FP inh
CC(NC(=S)NNS(=O)(=O)c1cccc([N+](=O)[O-])c1)c1ccccc1 (stereo not drawn),6,-1,3,-2,2,-1,1,2
CC1=C(C(=O)OCCOc2ccccc2)C(c2ccsc2)NC(=O)N1C (stereo not drawn),3,-4,3,-2,-1,3,-5,3
O=C(CN1CCCc2ccccc21)NCCc1ccc(Cl)cc1,11,11,0,-2,5,5,1,-3
COc1cccc(/C=C/C(=O)OCC(=O)Nc2ccc(S(=O)(=O)N3CCCC3)cc2)c1,-3,-6,-10,-9,-6,-2,-13,0
CC(NC(=O)c1ccc2ccccc2n1)c1ccc(Br)cc1 (stereo not drawn),1,1,10,6,1,7,-7,4
Cc1ccc(SCc2nnc(N)s2)cc1,1,6,10,9,4,-6,9,-2
O=C(NCc1n[nH]c(=S)n1-c1ccc(Cl)c(Cl)c1)c1ccc(S(=O)(=O)N2CCCCC2)cc1,8,2,4,3,0,-1,0,-11
CC(NC(=O)CCc1nnc(C2(c3ccc(Cl)cc3)CCC2)o1)C1CC1 (stereo not drawn),3,3,4,3,-1,-4,-1,-6
O=c1ccc2c([nH]1)CCCCCCCCCC2,1,1,-2,-3,-2,1,-2,1
CC(C)(C)S(=O)(=O)N1C[C@H]2CC/C=C\C/C(c3ccccc3)=C\2[C@@H]1CCO,x,x,6,x,x,-4,x,x
CC(CSc1n[nH]c(=S)s1)c1ccccc1 (stereo not drawn),x,x,6,x,x,12,x,x
Cc1ccc(S(=O)(=O)NCc2ccccc2)cc1C(=O)N1CCN(S(=O)(=O)c2ccccc2)CC1,x,x,-2,x,x,-4,x,x
CCCN(CCC)C(=S)NC(=O)c1ccc(Cl)cc1Cl,1,0,-1,2,8,-5,0,1
Cc1ccc(SCC(=O)Nc2ccccc2C(=O)N2CCOCC2)cc1,2,-1,-1,11,4,4,1,-6
O=C(c1ccc2[nH]c(=O)c(=O)[nH]c2c1)N1CCN(Cc2ccccc2)CC1,6,3,6,-4,7,10,-2,-4
CC(C)NC(=O)C(=O)NCCc1ccc(Cl)cc1,5,1,-3,2,3,-8,-1,-3
O=C(O)C1CCCN(S(=O)(=O)c2ccc(Br)cc2)C1 (stereo not drawn),4,-3,-1,-7,-9,-14,-3,-5
Cc1nnsc1-c1onc(C)c1C(=O)O/N=C/c1ccc(Cl)cc1,8,4,-7,-2,1,3,-4,-2
CC(=O)Nc1ccc(C(=O)OCC(=O)N(c2ccccc2)C2CCCCC2)cc1,x,x,7,x,5,4,x,-2
COc1ccc(S(=O)(=O)N2CCOC23CCN(S(=O)(=O)c2ccc(Cl)cc2)CC3)cc1,2,1,7,-2,5,-2,4,2
Cc1cc(C)cc(NC(=O)CSc2nc(CSc3ccc(Cl)cc3)cc(=O)[nH]2)c1,-7,3,2,-8,4,-4,0,1
Cc1nn(CCC(=O)N2CCN(S(=O)(=O)c3ccc(Cl)cc3)CC2)c(C)c1C,6,0,11,-1,3,10,-2,-1
